Assay outcomes deposited in PubChem by ICCB-Longwood Screening Facility, Harvard Medical School.
MgrA-DNA mod = alters Staphylococcus aureus MgrA binding to DNA; fluorescence polarization; inhibition, %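 (about 10 µg/mL by stock and volumes)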; 0.13% of 84,000 active; AID 602314;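 active = above 50% in either of two replicates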;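 also: 0% = protein plus DNA without compound and 100% = DNA alone without protein; higher means less MgrA bound to DNA so lower polarization; one replicate is shown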
Sa helicase inh = S. aureus DNA helicase inhibition; purified S. aureus helicase, fluorescence unwinding assay; about half of the hits fall short of the stated cut; inhibition, %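 (tested at about 80 µM)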; 0.05% of 120,000 active;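 active = both duplicates at 50% or more, or one of them with a favoured structure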;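 also: 0% = mean of negative control wells and 100% = mean of positive control wells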
An asterisk follows results filed as active; . = no result given. The list is partial, so the mix of outcomes need not match the whole.

compound	MgrA-DNA mod	Sa helicase inh
O=C(CON1C(=O)c2ccccc2C1=O)c1ccc(O)cc1O	2.8	29
CCN(Cc1ccccc1)C(=O)CSc1nncn1C	.	2
COc1ccc(OCCC(=O)NN)cc1	0.1	.
CC(C)(C)OC(=O)N1CCN(C2CC(=O)N(CCc3ccccc3)C2=O)CC1 (centres undefined)	-0.4	22
CCNc1nc(NC(C)C)nc(OCCNS(=O)(=O)c2cc(C)ccc2C)n1	-1.5	.
CCc1ccc(CNC(=O)C2CCN(S(=O)(=O)N3CCCC3)CC2)cc1	.	-2
CCn1cc(C(=O)N2CCOCC2)c(=O)c2cc(S(=O)(=O)N3CCc4ccccc4C3)ccc21	.	-13
CCOC(=O)c1cn(C(=O)CCSc2ccc(OC)cc2)nc1N	-1.1	.
CC(=O)Nc1cccc(NC(=O)c2nc(-c3ccccc3)oc2C)c1	.	2
COc1cccc(C2(O)CCSc3ccccc32)c1 (centres undefined)	0.2	.
N#CCN(CC#N)C(=O)c1ccc(C(=O)N(CC#N)CC#N)cc1	2.1	8
COc1cc(-c2nc3sc4c(c3c(=O)o2)CCCC4)cc(OC)c1OC	.	10
CCCOc1ccccc1C1C(C(=O)OC)=CN(C2CCCC2)C=C1C(=O)OC	1.8	-17
CCOC(=O)N1CCN(C(=O)/C(=C/c2ccccc2Cl)c2ccccc2)CC1	1.4	-13
Cc1nccc(-c2ccc(Br)cc2)n1	0.8	.
Cc1cc(/C=C/C(=O)O)c(C)n1-c1ccccc1	.	-10
Cc1ccc(CN2C(=O)CCC2C(=O)NCc2ccco2)cc1 (centres undefined)	.	-9
Cc1ccc2c(n1)sc1c(=O)n(Cc3ccccc3)nnc12	.	-22
COC(=O)c1ccc(COc2ccccc2)o1	.	-10
CCOC(=O)C1CCN(C(=S)Nc2ccccc2OC(F)(F)F)CC1	3.9	.

Copied from the list.
`COC(=O)c1ccc(COc2ccccc2)o1` – Sa helicase inh = -10
`CCNc1nc(NC(C)C)nc(OCCNS(=O)(=O)c2cc(C)ccc2C)n1` – MgrA-DNA mod = -1.5
`CCOC(=O)c1cn(C(=O)CCSc2ccc(OC)cc2)nc1N` – MgrA-DNA mod = -1.1

(next part)
compound	MgrA-DNA mod	Sa helicase inh
O=C(COc1c(F)c(F)cc(F)c1F)C12CC3CC(CC(C3)C1)C2	.	-1
CSC1=NC2(CC(c3ccccc3)Oc3cc(O)ccc32)CC(C)(C)N1 (centres undefined)	-1.8	8
O=C(N/N=C/c1ccc(Br)cc1)c1ccccc1-n1cccc1	.	-5
Nc1[nH]n(-c2ccccc2)c(=O)c1N=Nc1ccc(Cl)cc1	3.8	11
CCOc1ccc2oc(=O)cc(CN(Cc3ccco3)CC3CCCO3)c2c1 (centres undefined)	1.6	11
O=C(Nc1ccc(C(F)(F)F)cc1)Nc1ccccc1C(=O)O	-4.1	.
CCOc1ccc2nc(NC(=O)c3ccc(C(C)(C)C)cc3)sc2c1	0.3	9
CC(C)CN(C(=O)CSc1nccn1C)C1CCS(=O)(=O)C1 (centres undefined)	.	2
O=C(Nc1ncccn1)c1ccc(Cl)cc1	-1.0	.
CC(C)Cc1cc(-c2ccc(F)cc2)c(C#N)c(N)n1	1.6	11
CC1=C(C(=O)OCCCCCl)C(c2cc3c(cc2Br)OCO3)NC(=O)N1 (centres undefined)	-1.2	.
Cc1cc(C(=O)CSCc2ccc(Cl)c(Cl)c2)c(C)n1Cc1ccco1	.	8
Cc1oc(-c2cccc(C(F)(F)F)c2)cc1CO	.	5
O/N=C1/CC(O)(C(F)(F)F)Oc2ccccc21 (centres undefined)	0.7	15
CN(C)C(CNC(=O)c1ccc2ncsc2c1)c1cccs1 (centres undefined)	.	9
COc1ccc2c(c1)CC/C(=C/c1ccco1)C2=O	0.2	5
Cc1nc2ccccn2c1-c1ccnn1C(=O)c1ccc(Cl)cc1	1.3	.
COc1cccc2cccc(/C=N/n3cnnc3)c12	0.3	-15
Oc1ccc(-c2n[nH]c(C(F)(F)F)c2-c2ccccc2)c(O)c1	.	-3
COc1ccc(-c2noc(CC(=O)N(Cc3ccco3)C3CCCCC3)n2)cc1	.	10
Cc1ccc(-n2c(=O)c3ccc(C(=O)NCc4ccco4)cc3n(Cc3ccccc3F)c2=O)cc1	1.2	9
N#C/C(=C\c1c[nH]c2ccccc12)C(N)=O	1.0	-3
CC(=O)N1N=C(Cn2nc(C)cc2C)OC1(C)c1ccccc1 (centres undefined)	.	-8
COc1ccc(C=C2CCC(=O)CC2)cc1	-0.3	.
Nn1cnn2c(SCc3cccc(C(F)(F)F)c3)nnc12	4.5	15
Cc1ccc(/C=C/C(=O)N2CCCc3ccccc32)o1	.	-24
O=C(OCCN1C(=O)c2ccccc2C1=O)c1ccccn1	.	-1
CC(C)(C)c1ccc(C(=O)CC(C(=O)O)N2CCCCC2)cc1 (centres undefined)	12	5
Cc1ccccc1N=C(NN)c1ccccn1	1.5	8
O=C1CC(C(=O)Nc2cccc3ccccc23)C2(CCCC2)O1 (centres undefined)	-3.5	16
CC(C)(C)c1ccc(-c2n[nH]c(S(C)(=O)=O)c2C#N)cc1	-0.7	.
Cc1cc2ccccc2nc1SCC(N)=O	-1.8	6
Cc1cccc(Nc2ccccc2C(=O)NCc2ccco2)c1C	.	5
O=C(CNC(=S)N(Cc1cccs1)C1CCCC1)NC1CCCc2ccccc21 (centres undefined)	0.9	0
COC(=O)CCC1CCCC/C1=N/O (centres undefined)	0.0	-6
Cc1cccc(N=Cc2c(O)[nH]c3ccccc23)c1	-0.6	9
CCOC(=O)c1c(C)[nH]c(C)c1C(=O)COC(=O)c1ccc(S(=O)(=O)N(CC)CC)cc1	.	35
CCOC(=O)c1ccc(N2C=C(C(=O)OC)C(c3cccc(O)c3)C(C(=O)OC)=C2)cc1	.	-28
O=c1oc2cc(OCc3ccccc3F)ccc2c2c1CCC2	-3.5	5
COc1cc(CC(=O)O)ccc1OCc1ccccc1	-4.3	.
Cc1ccc(C)c(Cn2c(N3CCC(C(=O)NCc4ccco4)CC3)nc3ccccc32)c1	.	-4
COc1ccc2c(C)cc(SCc3cn4ccsc4n3)nc2c1	.	1
O=S1(=O)N=C(N2CCOCC2)c2ccccc21	.	34
O=C(Cn1nc(-c2ccc(Cl)cc2)c2ccccc2c1=O)NCc1cccnc1	.	-3
COc1cccc(NC(=O)c2oc3ccccc3c2NC(=O)c2ccc3c(c2)OCO3)c1	.	19
CC(CC(=O)O)CC(=O)Nc1ccc(C(=O)O)cc1 (centres undefined)	.	8
Cn1c(CN2CCCCC2)c(C#N)c2ccccc21	1.6	-1
Cc1ccc(OC(C)(C)C(=O)Nc2ccc(Oc3ccc(F)cc3F)nc2)c2c1CCC2	0.6	.
CCOc1ccccc1/C=N\n1cnnc1	5.4	15
O=C(O)c1cc([N+](=O)[O-])ccc1Sc1ccc([N+](=O)[O-])cc1C(=O)O	2.2	.
COc1cc(-c2nc3ccccc3c(=O)n2NC(=O)COc2cccc(C)c2)cc(OC)c1OC	-2.7	.
Cc1onc(-c2ccccc2Cl)c1-c1nc(-c2ccc(Br)cc2)no1	.	6
CCN1CCN(Cc2ccc(NC(=O)Nc3cc(F)ccc3F)cc2)CC1	-0.2	-3
O=C(Cc1ccc2c(c1)OCO2)c1ccccc1	-0.7	.
C=CCNc1nn(-c2nc3ccccc3s2)c2c1CCCC2	-0.4	-17
COc1ccc(-c2nnc3ccc(SCC(=O)N4CCCCC4)nn23)cc1	1.2	22
Cc1ccc(CNC(=O)CSc2nc3cnn(C)c3c(=O)n2Cc2ccccc2)cc1	.	9
Cc1onc(-c2c(Cl)cccc2Cl)c1NC(=O)N1CCCN2C(=O)c3ccccc3C12 (centres undefined)	.	-20
N#CCC(=O)c1cccc(CSc2cccc(C(F)(F)F)c2)c1	-1.9	.
Cc1nnc2c(-c3ccccc3)nc3ccccc3n12	.	9

Carrying on.
compound	MgrA-DNA mod	Sa helicase inh
CCOc1ccc(NC(=O)c2ccc(S(=O)(=O)N3CCCC3)cc2)cc1	.	-11
COC(=O)c1ccc(Oc2nc(N)nc(N(C)C)n2)cc1	2.6	7
N#CC(C#N)=C1SC=C(c2ccc(Cl)cc2)S1	-7.2	.
CCOc1ccc(-n2nnc(C)c2C(=O)N2CCC(C(N)=O)CC2)cc1	.	-5
CC1CCC2(OC1)O[C@H]1C[C@H]3[C@@H]4CC[C@H]5C[C@@H](O)CC[C@]5(C)[C@H]4CC(=O)[C@]3(C)[C@H]1[C@@H]2C (some centres undefined)	4.2	.
NC(=S)Nc1ccccc1C(F)(F)F	-0.9	.
C=CCNC(=S)Nc1nccs1	.	-7
O=C1CCCCCC1CN1CCCCC1 (centres undefined)	-1.9	-23
CC(C)CC(=O)N1CCN(CC2CC=CCC2)CC1 (centres undefined)	.	7
CN(C(=O)CSc1nc(O)cc(=O)n1C1CCCC1)c1ccccc1	.	-7
Cc1ccc(SCC(=O)N[C@@H]2C[C@H]3CC[C@@H]2C3)cc1	-0.8	-8
CCCCN(C(=O)Cn1ncc2c1-c1cc(C)ccc1OC2)C1CCN(C(C)=O)CC1	.	-13
Cc1nc(-c2c(C)[nH]c3ccccc23)cs1	.	-23
CCSc1nnc(-c2ccccc2NC(=O)CC)c(=O)[nH]1	2.5	0
CCC(CO)NCc1sccc1C (centres undefined)	-2.8	-3
Cc1c(Br)sc(Br)c1-c1ccccc1	-1.3	.
CCN(CC)C(=O)CCc1nc(-c2cccc(OC)c2)no1	-0.2	-2
Cc1cc(-c2ccc(S(=O)(=O)N(C)Cc3ccccc3)cc2)on1	.	-18
CC(=O)Oc1cc(-c2nc3ccccc3o2)cc(-c2nc3ccccc3o2)c1	-1.2	16
Cc1nc2ccc(NC(=O)c3ccc(S(=O)(=O)N4CCCCC4)cc3)cc2s1	-2.2	.
CCCOc1ccccc1N1C(=O)CC(Nc2ccc(C)cc2)C1=O (centres undefined)	.	13
CCOC(=O)C1OC(c2ccccc2)OC1C(=O)OCC (centres undefined)	.	-7
Cn1cc(CCCC(=O)O)c2ccccc21	0.9	-5
NC(=O)C1CCN(CCS(=O)(=O)c2ccccc2)CC1	-2.5	.
Cc1ccc(C(c2nnnn2C(C)(C)C)N2CCC(C)CC2)cc1 (centres undefined)	-1.0	15
COC(=O)c1cc(-c2cccc(N)c2)nc2ccccc12	.	11
COc1ccc(C2CC(=O)C3=C(C2)NC(C)=C(C#N)C3c2ccc(OC(C)=O)c(OC)c2)cc1 (centres undefined)	2.2	.
COc1ccc(-c2nc3n(c2NC(C)(C)C)CCN(C(=O)Cc2ccccc2F)C3)cc1	-1.9	9
COc1ccccc1OCCOc1ccc(F)cc1	2.0	14
NC(=O)CSc1ccc(Cl)cc1	.	14
CNC(=O)CCc1cn(Cc2ccc(C)cc2)c2ccccc12	-0.5	6
Cc1cc(C)c(C(=O)COC(=O)c2nccnc2N)cc1C	.	5
CC(C)N1C(=S)SC(C)(C)C1n1oc(=O)n(-c2cccc(Cl)c2)c1=O (centres undefined)	2.9	-3
CCOC(=O)CN1C(=O)S/C(=C\c2ccc(C(=O)O)cc2)C1=O	1.5	0
O=c1oc(-c2cccs2)nc2sc3c(c12)CCC3	2.0	.
CCCCSc1nnc2c(n1)OC1(Nc3ccccc3-2)C(=O)Nc2ccc(Br)cc21 (centres undefined)	11	.
CC[C@H]1OC(=O)[C@H](C)[C@@H](O[C@H]2C[C@@](C)(OC)[C@@H](O)[C@H](C)O2)[C@H](C)[C@@H](O[C@@H]2O[C@H](C)C[C@H](N(C)C)[C@H]2O)[C@](C)(OC)C[C@@H](C)C(=O)[C@H](C)[C@@H](O)[C@]1(C)O	1.2	.
CC(Oc1ccccc1)C(=O)NC1CC(C)(C)NC(C)(C)C1 (centres undefined)	-0.7	10
CCOC(=O)C1=C(C)N(C)C(C)=C(C(=O)OCC)C1c1ccc(C)s1	0.2	3
O=C1C=CC(=O)C(C2=C3C(=O)N(Cc4ccccc4)CC(=O)N3CCC2)=C1	.	29
O=C(O)c1nn(CCN2C(=O)c3ccccc3C2=O)c(=O)c2ccccc12	.	7
O=C(O)c1ccc2c(c1)C(c1ccccc1)OC2=O (centres undefined)	.	12
CC1CN(CC(O)COC(c2ccccc2)c2ccccc2)CC(C)O1 (centres undefined)	.	9
CN1CC=C2C(C#N)=C(N)C(C#N)(C#N)C(CCc3ccccc3)C2C1 (centres undefined)	21	-7
CCn1c(C(C#N)/C(=N\S(=O)(=O)c2cccs2)c2ccccc2)nc2ccccc21 (centres undefined)	.	7
Cc1[nH]c(=O)c(C#N)c(C)c1CCC(=O)OCc1ccc(C#N)cc1	.	-3
O=C(/C=C/c1ccccc1)Nc1nnc(/N=C/c2ccc(Br)s2)s1	2.5	18
NNC(=O)COc1cccc(C(F)(F)F)c1	.	13

Exported with each value named: part of the list above.
> Cc1ccc(C(c2nnnn2C(C)(C)C)N2CCC(C)CC2)cc1 (centres undefined)
  MgrA-DNA mod: -1.0	Sa helicase inh: 15
> COC(=O)c1cc(-c2cccc(N)c2)nc2ccccc12
  MgrA-DNA mod: .	Sa helicase inh: 11
> COc1ccc(C2CC(=O)C3=C(C2)NC(C)=C(C#N)C3c2ccc(OC(C)=O)c(OC)c2)cc1 (centres undefined)
  MgrA-DNA mod: 2.2	Sa helicase inh: .
> COc1ccc(-c2nc3n(c2NC(C)(C)C)CCN(C(=O)Cc2ccccc2F)C3)cc1
  MgrA-DNA mod: -1.9	Sa helicase inh: 9
